NPYLR7 agonist: activates Aedes aegypti NPYLR7 receptor; AID 1259423; HEK293T NPYLR7/Galpha15, GCaMP6s calcium fluorescence; activation, % at 10 µM; 0.15% of 270,000 active; in the data active = activation above about 40%;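 note: 0% = vehicle and 100% = reference agonist at the receptor; some compounds past the cut are filed as inactive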
NPYLR7 agonist max-min: further read-out of NPYLR7 agonist, marked with its call; activation, %; measured here: Max-Min RFU normalised activation; some inactives read as strong as hits;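 span of the calcium signal over five minutes; 0% = vehicle and 100% = native peptide agonist; compound fluorescence can raise it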
* marks the source's active call; other numbers are inactive results; & = joins results of further samples. A portion of the library. The share of hits here may be higher or lower than overall.

SMILES | NPYLR7 agonist | NPYLR7 agonist max-min
Cc1ccc(-c2nnc3c4ccccc4c(C)nn23)cc1S(=O)(=O)N(C)CCO | -16 | -24
CC1CCC(NC(=O)c2cc(N3CCc4ccccc4C3)nc3ccccc23)CC1 (stereo not given) | 5 | 1
C[C@H](NC(=O)CC1CC2(CCNCC2)c2ccccc21)[C@@H](O)c1ccccc1 (stereo not given in full) | -1 | 17
CCCCCCc1nc(C(N)=O)c2[nH]c(=O)n(-c3ccc(OCC)cc3)c2n1 | 14 | 5
FC(F)(F)c1ccc(Cn2ccnc2CNCc2ccco2)cc1 | 2 | 4
Cc1cc(C(=O)NCc2ccc(-c3ncc(-c4ccc(F)cc4)[nH]3)cc2)cc(Cl)n1 | -1 | 9
Cc1oc(-c2ccsc2)nc1CN1CCCCC1c1ccc(F)cc1 (stereo not given) | 1 | -14
CCCc1c(C)nn(-c2ccc(C(=O)NCCc3cccnc3)cc2)c1C | -7 | -13
CCC(C)C(NC(=O)c1ccc(C)c([N+](=O)[O-])c1)C(=O)Nc1nnc(-c2ccc(Br)cc2)s1 (stereo not given) | -7 | -8
COc1ccc(/C=C2\SC(=S)N(C(C)C(=O)O)C2=O)c(OC)c1 (stereo not given) | -2 | -1
O=C(Nc1ccccc1C(F)(F)F)N1CCSC1c1ccc(F)cc1 (stereo not given) | 15 | 18
Cc1cccc(C(=O)Nc2ccc(N(C)C)nc2)n1 | -2 | -4
Cc1cc(C(=O)NCc2ncc(C(C)(C)C)o2)nn1-c1ccccc1 | 7 | 4
CCOc1ccc2nc(SCC(OCC)OCC)[nH]c2c1 | 5 | 5
O=C(Nc1ccc(-n2ccnc2)c(F)c1)C1CCN(C(=O)C2CC2)CC1 | 4 | 3
CCOC(=O)C1CCN(C(c2ccc(Br)cc2)C2Sc3nc(CC)nn3C2=O)CC1 (stereo not given) | 17 | 24
CC(C)(C)n1ncc2c(=O)n(NC(=O)c3ccc4c(c3)OCO4)cnc21 | 5 | 2
CCCCCn1cc(C2CCN(S(=O)(=O)c3ccc(NC(C)=O)c(Cl)c3)CC2)c2ccccc21 | 33 | 17
COCCCn1c(O)c(C=Nc2cc(OC)ccc2OC)c(C)c(C#N)c1=O | 42 | 31
Cc1nn(C)c(C)c1CN(C(=O)c1ccc(=O)n(C)c1)C(C)C | 0 | -6
CCn1ncc(S(=O)(=O)N2CCCC(c3nn(C)c(=O)n3CC)C2)c1C (stereo not given) | -1 | -5
CN(c1ccccc1)c1ccc(CN2CCN(C)C(CCO)C2)cc1 (stereo not given) | 15 | 4
c1ccc(-c2nc(C34CC5CC(CC(C5)C3)C4)co2)cc1 | 4 | 0
COc1cc(Cn2nc(-c3ccccc3)c3sc(N4CCOCC4)nc3c2=O)cc(OC)c1 | -5 | -8
COCCC(=O)Nc1ccc2c(c1)CN(Cc1cn[nH]c1C1CCCCC1)CC2 | 2 | -2

A draw from above in order of heavy-atom count, low to high.
SMILES | NPYLR7 agonist | NPYLR7 agonist max-min
Cc1cccc(C(=O)Nc2ccc(N(C)C)nc2)n1 | -2 | -4
CCOc1ccc2nc(SCC(OCC)OCC)[nH]c2c1 | 5 | 5
CN(c1ccccc1)c1ccc(CN2CCN(C)C(CCO)C2)cc1 (stereo not given) | 15 | 4
CCCc1c(C)nn(-c2ccc(C(=O)NCCc3cccnc3)cc2)c1C | -7 | -13
CC1CCC(NC(=O)c2cc(N3CCc4ccccc4C3)nc3ccccc23)CC1 (stereo not given) | 5 | 1

(listing goes on)
SMILES | NPYLR7 agonist | NPYLR7 agonist max-min
CCOC(=O)C1CSCCN1S(=O)(=O)c1cc(Cl)cc(Cl)c1 (stereo not given) | -4 | -4
COC(=O)CCNC(=O)c1nn(CC2CC2)c2c1CN(C(=O)c1ccccc1F)CC2 | 16 | 2
Cc1nn(C)c2ncc(C(=O)O)c(N3CCOC(C(F)(F)F)C3)c12 (stereo not given) | 5 | -2
COc1ccccc1-c1ncc(CN2CCC3(CCCN(CC4CCC4)C3)C2)cn1 (stereo not given) | 18 | 8
COC(=O)C=C1NC(=O)CS1 | 9 | 8
CCC1CN(Cc2ccc(OCc3ccccn3)cc2)CCN1C(C)C (stereo not given) | 0 | -9
CCN(CC1CCCO1)C(=O)c1cccc(-c2cn[nH]c2)c1 (stereo not given) | 9 | 5
Cc1ccccc1Cn1ccnc1CN(C(=O)c1ccc(Cl)cc1)C1CCCCC1 | 23 | 32
O=C(c1cc(=O)c2ccccc2o1)N1CCN(Cc2nc(-c3ccc(F)cc3)cs2)CC1 | -9 | -14
CCOC(=O)C1(Cc2ccc(Cl)cc2)CCN(Cc2ccc(C#CCCO)cc2)CC1 | 4 | 8
CSCC(C)C(=O)NCc1ccnc2ccccc12 (stereo not given) | -1 | -1
O=C(c1cc(Cl)c[nH]c1=O)N1CCC(c2cc(Cc3ccccc3)[nH]n2)CC1 | -4 | -4
CC(C)NC(=O)N1CCN(Cc2coc(-c3ccc(F)cc3)n2)CC1 | -24 | -25
NC(=O)Cn1cc(NC(=O)c2ccc(N3CCCC3)c(F)c2)cn1 | 4 | 4
Cc1ccc(-n2cccn2)c(CN2CCC(CO)(CC3CCCCO3)CC2)c1 (stereo not given) | 16 | 11
Cc1cc(-c2nc3cc(F)ccc3n2C(C)C)ccc1N | -4 | -7
CC1C(=O)N(c2ccc3c(c2)OCO3)CCN1C(=O)c1ccc(C(F)(F)F)cc1 (stereo not given) | 19 | 11
COC(=O)c1cc(C#N)c(=O)n(CC(=O)NC2(c3ccccc3)CCC2)c1 | 6 | 5
CCN(CC1CCCO1)C(=O)c1ccc(OC2CCN(S(=O)(=O)N(C)C)CC2)cc1 (stereo not given) | 18 | 4
COc1cccc(C(=O)NC2CCN(c3ccccc3C(=O)NCc3ccco3)CC2)c1 | -3 | 4
Cc1ccsc1CN(C)Cc1ncccc1C(=O)O | -1 | 8
Cc1onc(-c2ccccc2)c1C(=O)NCc1ccccc1 | -4 | -6
Cc1ccccc1NC(=O)NC(C)c1cnn(-c2cccc3ccccc23)c1C (stereo not given) | 0 | -3
O=C(NCC1Cc2cc(-c3cnc4ccccc4c3)cc(F)c2O1)C1=CCCC1 (stereo not given) | 2 | 0
COC(=O)C1(F)CCN(C(=O)NC(C)c2ccc(C)cc2)C1 (stereo not given) | 2 | 0
CCOC(=O)c1cccnc1NCc1cccnc1N1CCN(C(C)=O)CC1 | 6 | 0
COc1ccc2[nH]c(C(=O)N(C)CCc3noc(C(C)C)n3)c(C)c2c1 | -9 | -17
O=C(Nc1cnc2sc3ccccc3n2c1=O)c1ccccc1 | -2 | -2
CCOc1nc(-c2ccccc2C)n(-c2ccc(NC(=O)c3ccc(Cl)c([N+](=O)[O-])c3)cc2)n1 | 23 | 20
Cc1cc(C(=O)Nc2cc(-c3ccccc3)nn2-c2ccccc2Cl)ccc1Br | 21 | 14
CCn1cc(C(=O)O)c(=O)c2cnc(N3CCCC3)nc21 | -4&-4 | -7&-9
COc1ccc(OC)c(S(=O)(=O)NC(=O)C2(C)CCN2C(=O)Cc2cc(C)cc(C)c2)c1 (stereo not given) | -2 | -2
CN(Cc1ccccc1)C(=O)CC1(c2cccc(C(F)(F)F)c2)CC(=O)N(C2CC2)C1=O (stereo not given) | 19 | 10
Cc1ccc(C)c(Cn2nnc(C(=O)Nc3ccc(C)c(C)c3)c2N)c1 | 0 | 5
N#CCN(Cc1ccccc1)C(=O)COc1ccccc1C(F)(F)F | 5 | 7
O=C(NCC(=O)N1CCCN2CCCC2C1)c1ccc2ccccc2c1 (stereo not given) | 10 | 11
Cc1ccc(CN2CCN(c3ccc(N)cc3C(=O)N3CCCC3)CC2)cc1 | 1 | 5
CCOc1ccc(N2C(=O)NC(=O)/C(=C/c3cc(Br)ccc3OC)C2=O)cc1 | 27 | 16
CCn1cc(C(=O)O)c(=O)c2cc3c(cc21)OCO3 | -25&1&3 | -20&-4&-3
O=C(N1CCc2ccccc2C1c1ccccc1Cl)C1(c2ccc(Cl)cc2)CCCC1 (stereo not given) | -1 | 2
CCOc1ccc(-c2ccc3nnc(SC)n3n2)cc1 | -10 | -5
COC(=O)c1ccc(-c2noc(CN(C)CC3COc4ccccc4O3)n2)cc1 (stereo not given) | 7 | 7
CC(=O)Nc1ccc2nc(CN3CCC(C(=O)N4CCCC4)CC3)ccc2c1 | -1 | -3
O=C(Nc1ccc2c(c1)OCCO2)N1CCN(c2ccc(Nc3cccnc3)nn2)CC1 | 5 | -3
O=S(=O)(c1cccc2ccccc12)N1CCN(C2c3ccccc3CCc3ccccc32)CC1 | 0 | 1
Cc1ccc(Cc2nc(N3CCCN(C(=O)c4ccc(Cl)c(Cl)c4)CC3)c3c(-c4cccnc4)noc3n2)cc1 | 18 | 6
COc1ccc(CCNC(=O)CSc2nc(Cl)cc(N3CCN(C(=O)C4CC4)C(C)C3)n2)cc1OC (stereo not given) | 27 | 29
CCOC(=O)C1C(=O)C=C(c2ccc(C)cc2)CC1c1cccc(OC)c1 (stereo not given) | 0 | 3
CSc1ccc(C(=O)CCC(=O)Nc2ncc(C)s2)cc1 | 4 | 0
COCCCn1c(-c2ccccc2)csc1=Nc1ccccc1Br | 2 | -4

Remaining list, next part
SMILES | NPYLR7 agonist | NPYLR7 agonist max-min
Cc1n[nH]c(C)c1CCC(=O)N1CC(=O)N(C2CCCCC2)CC(OCc2ccccc2)C1 (stereo not given) | 5 | -7
CCOc1ccc(C2c3cccn3CCCN2Cc2cccs2)cc1 (stereo not given) | -2 | 3
CSc1ccc(C(NC(=O)C(OC(C)=O)c2ccccc2)c2cccc(Cl)c2Cl)cc1 (stereo not given) | -4 | -6
Cc1cc(Cl)ccc1OC(C)c1nnc(SCC(=O)c2ccc3c(c2)OCCCO3)o1 (stereo not given) | -8 | -10
Cc1noc(C)c1COc1ccc(CC(=O)NC2CC3CC2C2CCCC32)cc1 (stereo not given) | 0 | 4
CCN1CCC[C@H]1CNC(=O)c1cc(S(N)(=O)=O)ccc1OC | -10&2 | -13&-33
CCOc1ccccc1NS(=O)(=O)c1cccc(Cl)c1 | -1 | 61
CCN1CC(C)C(O)(c2ccccc2)CC1C (stereo not given) | 5 | 6
NC(=O)CSc1ncnc2scc(-c3ccc(Cl)cc3)c12 | -10 | -14
COc1ccccc1N1CCN(C(=O)C[C@@H]2O[C@H](CNC(=O)COCC(=O)O)[C@@H](O)[C@H]2O)CC1 | -9 | -13
CC(C)(C)N1C(=O)C2C3C=CC(C2C1=O)C1C(=O)N(C(C)(C)C)C(=O)C31 (stereo not given) | 9 | 12
O=C(O)CSCC(=O)N1CCOCC1 | -2 | 0
Cc1nc2sc(C#N)c(N)c2c(C)c1C | 1 | 8
Cc1cc(NC(=O)c2cc(C)n(C(C)C)c2C)ccc1Oc1cccnc1 | 2 | -10
COc1cc(C(=O)NC(C)C)c(Br)c(OC)c1OC | 2 | 2
CC(C)CN1CCC(NC(=O)N(C)C2CCc3ccccc32)CC1 (stereo not given) | 0 | 0
CC1CCCN(c2nc3c(c(=O)[nH]c(=O)n3C)n2CCCSc2nc3ccccc3s2)C1 (stereo not given) | 0 | 23
Cc1nc(Cc2nnc(SCC(=O)c3c(N)n(C4CC4)c(=O)[nH]c3=O)o2)cs1 | 0 | 3
c1nc(NC2CCCCCCC2)c2c3c(sc2n1)CCC3 | 4 | 0
COc1ccc(C)cc1CSc1n[nH]c(=O)n1C1CC1 | -4 | -7
Cc1ccc(NC(=O)N2CCC(C(NC(=O)c3ccccc3Cl)C(=O)N3CCCCC3)CC2)cc1 (stereo not given) | -1 | -1
COc1ncc(CN(C)Cc2noc(C)n2)cn1 | -1 | 0
Cc1cnc(N2CCOCC2C)nc1N1CCOCC1C (stereo not given) | 5 | 1
O=C(NCc1cccnc1)C(C1CCCC1)N1CCN(C(=O)c2ccccc2F)CC1 (stereo not given) | 6 | 9
CC(C(=O)NC1CCCc2ccccc21)N1CCN(C/C=C/c2ccccc2)CC1 (stereo not given) | 0 | 1

2 entries drawn at random from the list so far, as already listed:
SMILES | NPYLR7 agonist | NPYLR7 agonist max-min
Cc1cc(NC(=O)c2cc(C)n(C(C)C)c2C)ccc1Oc1cccnc1 | 2 | -10
Cc1noc(C)c1COc1ccc(CC(=O)NC2CC3CC2C2CCCC32)cc1 (stereo not given) | 0 | 4

New compounds follow.
SMILES | NPYLR7 agonist | NPYLR7 agonist max-min
CSc1nc2ncc3c(=O)n(CCc4cccs4)ccc3n2n1 | 4 | 9
CC(C)(C)NCCCN | 4 | 4
COc1cccc(C(=O)NCc2cccc(-c3ncc(-c4ccccc4)[nH]3)c2)c1 | 5 | 2
CCN(Cc1ccsc1)CC1CCCN(CCc2cccc(F)c2)C1 (stereo not given) | -5 | -8
CCOC(=O)CN1CCN(c2ccc(Cl)cc2)C(=O)C1C (stereo not given) | -3 | 6
O=C(CCCCCN1C(=O)c2ccccc2C1=O)Nc1nccs1 | 2 | 4
CC1(C)CC(=NOC(=O)c2ccccc2)CC(C)(C)N1 | -5 | -10
Cc1ccc(N2CCN(Cc3c(F)cccc3F)C(C)C2=O)cc1Cl (stereo not given) | -4 | 0
Nc1cccn2cc(-c3cccs3)nc12 | 22 | 23
CCCCCCC(O)c1nnc(Nc2cc(OC)c(OC)c(OC)c2)s1 (stereo not given) | 2 | 2
CC(=O)[C@@H]1C[C@H](CC(=O)NCCc2c[nH]c3ccc(O)cc23)C1(C)C | -1 | -7
O=C(Cn1cnc2c(-c3ccncc3)nsc2c1=O)Nc1ccc(Cl)cc1 | 1 | 0
Cc1ccccc1C1c2ccsc2CCN1C(=O)CN(C(=O)c1ccc(Br)cc1)C1CCCCC1 (stereo not given) | 17 | 12
O=C(C=Cc1cc2c(cc1[N+](=O)[O-])OCO2)Nc1cccc(C(F)(F)F)c1 | 1 | 1
COCCc1nc2ccc(C(=O)NCc3c(C)nn(-c4ccc(F)cc4)c3C)cc2o1 | 16 | 2
COc1ccc(Cn2ccnc2CN(C(=O)CC(C)C)C(C)C)cc1 | 5 | 7

Assay outcomes: PubChem, Fisher Drug Discovery Resource Center
